Screening results as filed in PubChem.
D2 agonist – activates the human D2 dopamine receptor; DiscoveRx PathHunter D2 beta-arrestin, luminescence, 90 min; 100% = 57 uM dopamine signal; activation, % (test concentration not listed); 0.084% of 360,000 active; AID 624465; in the data active = activation above about 40%; inconclusive = about 15% to 40%; inactive = below about 15%; further: compound concentration not given in the record; the text of the record calls up to 30% inactive
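DiscoveRx PathHunter D2 beta-arrestin cells (2,100/well) attached overnight, then compound-stimulated 90 min at 37 C in HBSS/10 mM HEPES/0.1% Tween-20 buffer; beta-galactosidase complementation read by luminescence after 1 h at ambient temperature. Dopamine 57 uM final (EC100) as control.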
gsp antagonist – antagonizes gsp, the McCune-Albright syndrome mutation. 0.4% of 340,000 active. gsp-mutant cells, cAMP HTRF, 30 min; control for the full effect not named in the record. Potency, µM (doses to about 76.9 µM), inactives show at the highest dose activity change, negative = inhibition, hits mostly inhibitors; active = falling curve of any shape with a large fitted effect; inconclusive = falling curve, mostly with a smaller effect; inactive = flat or rising curve; cell line not stated here;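 further: intracellular cAMP measured with PDE inhibitor Ro 20-1724 present during compound exposure; potency means the concentration at half of the fitted maximal effect; on the % scale 0 is the no-effect control and ±100 the full control effect; nearly all actives have a fitted effect of over 65% in size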
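G418-selected cells were plated in DMEM/10% FBS for 16-24 h at 37C, then treated with compounds plus the PDE inhibitor […] (300 uM solution added) for 30 min at 37C. Intracellular cAMP was measured by HTRF after 30 min lysis at room temperature.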
D2 potentiator – potentiates the human D2 dopamine receptor allosterically; P14416; DiscoveRx D2 beta-arrestin cells, luminescence, 90 min; 100% = 57 uM dopamine signal; potentiation, % (concentration not given with the values); 0.23% of 360,000 active; active = potentiation of 50% or more; inconclusive = 30% to 50%; inactive = 30% or less;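 further: compound concentration not given in the record; tested on top of an EC20 dose of dopamine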
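PathHunter beta-arrestin assay in DiscoveRx D2 cells. Compounds were added with an EC20 of dopamine (50 nM final) for 90 min at 37 deg C. Luminescence was read 1 h after detection reagent, with 57 uM dopamine as the EC100 control.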
gsp ag – agonists of gsp mutant (McCune-Albright syndrome) | gsp mutant cells, cAMP HTRF, 30 min; control for the full effect not named in the record | Potency, µM (top dose mostly 76.9 µM), inactives show at the highest dose activation (cAMP increase), hits mostly activators | 0.13% of 340,000 active; active = well fitted activation curve with a large enough effect; inconclusive = small, poorly fitted or top-dose-only effect, or another doubt; inactive = no such curve, though single readings can be large or run the other way; cell line not stated here;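 further: phosphodiesterase inhibitor Ro 20-1724 added with compounds to block cAMP breakdown; potency means the concentration at half of the fitted maximal effect; nearly all actives have a fitted effect of over 60% in size; about a fifth of the inactives were tested at one dose only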
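Cells stably selected in G418 were plated at 2000/well, grown 16-24 hr, then given compounds in DMSO with the PDE inhibitor […] (300 uM solution added) for 30 min at 37C; cAMP was read by HTRF.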
CtBP-E1A blk – CtBP/E1A binding inhibition; AlphaScreen GST-E1A/His-CtBP binding, 1536-well; active compounds read low; control for the full effect not named in the record; AID 651724; activity change, % (no concentration beside the values); 0.49% of 340,000 active; in the data active means activity change below about -65%; inconclusive means about -30% to -65%; inactive means above about -30%; further: on the % scale 0 is the no-effect control and ±100 the full control effect
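GST-E1A and His-tagged CtBP (125 nM each as 5X stock) were preincubated with pin-transferred compound for 2 h at 37 °C in the dark, then glutathione donor and nickel acceptor beads were added for 1 h before AlphaScreen reading.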
Six1-Eya2 blk – inhibitors of human Six1/Eya2 interaction; Q15475+O00167; AlphaScreen GST-Six1/His-Eya2 binding, biochemical; active compounds read low; control for the full effect not named in the record; activity change, % (test concentration not listed); 0.56% of 360,000 active; in the data active = activity change below about -65%; inconclusive = about -30% to -65%; inactive = above about -30%; further: on the % scale 0 is the no-effect control and ±100 the full control effect
Target sequence (O00167 whole entry, looked up): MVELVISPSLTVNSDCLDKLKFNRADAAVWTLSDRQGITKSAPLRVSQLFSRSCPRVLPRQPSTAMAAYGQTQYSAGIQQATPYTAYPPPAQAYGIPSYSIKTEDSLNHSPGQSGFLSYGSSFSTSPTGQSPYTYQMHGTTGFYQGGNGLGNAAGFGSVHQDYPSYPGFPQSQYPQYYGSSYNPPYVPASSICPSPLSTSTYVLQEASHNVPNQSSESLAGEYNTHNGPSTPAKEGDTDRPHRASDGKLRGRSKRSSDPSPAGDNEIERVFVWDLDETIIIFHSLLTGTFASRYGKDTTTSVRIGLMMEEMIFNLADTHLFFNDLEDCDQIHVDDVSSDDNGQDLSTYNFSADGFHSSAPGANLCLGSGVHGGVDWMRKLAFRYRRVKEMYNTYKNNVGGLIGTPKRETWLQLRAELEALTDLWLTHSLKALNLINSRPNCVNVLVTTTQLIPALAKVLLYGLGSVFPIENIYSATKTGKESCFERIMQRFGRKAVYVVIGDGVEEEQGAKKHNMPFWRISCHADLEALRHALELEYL
Target sequence (Q15475 whole entry, looked up): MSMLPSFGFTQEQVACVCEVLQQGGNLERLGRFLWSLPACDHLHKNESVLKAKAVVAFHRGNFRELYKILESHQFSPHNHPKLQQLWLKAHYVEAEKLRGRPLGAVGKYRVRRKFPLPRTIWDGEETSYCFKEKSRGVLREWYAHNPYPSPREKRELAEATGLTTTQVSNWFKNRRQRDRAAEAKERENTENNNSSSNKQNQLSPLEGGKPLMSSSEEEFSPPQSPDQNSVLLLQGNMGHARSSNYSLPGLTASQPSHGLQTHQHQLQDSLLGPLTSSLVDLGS
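Compounds are tested against tagged Six1 and Eya2 proteins bridged by glutathione donor and nickel acceptor beads; after a one-hour incubation at 37 °C without light, AlphaScreen emission is recorded.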
* hit, by the source's call; ? = inconclusive; nt = no result given; [ ] = remark or other dose.

1: N#C/C(=C\c1cn[nH]c1-c1ccc(Cl)cc1)C(=O)NC1CC1
2: COc1ccccc1C(c1nnnn1Cc1ccccc1)N1CCN(c2nc3ccccc3s2)CC1 (centres undefined)
3: CCn1ncc(Br)c1C(=O)Nc1ccccc1C(=O)OC
4: O=C(Nc1ccccc1F)c1ccc(OCc2ccccc2)cc1
5: C=CCNC(=O)C1CC2Cn3c(nc4cc(Cl)c(Cl)cc43)C2N1C (centres undefined)
6: CC(=O)Nc1ccc(Nc2c3ccccc3nc3ccccc23)cc1
7: CCN(CC(=O)Nc1ccc2c(c1)OCCO2)c1ccc(S(=O)(=O)N2CCOCC2)cn1
8: COc1cc(-c2nnc(SCC(=O)N3CCOCC3)o2)cc(OC)c1OC
Compound | 1 | 2 | 3 | 4 | 5 | 6 | 7 | 8
D2 agonist | -0.4 | -1.5 | 1.5 | 1.0 | -0.2 | -4.0 | 0.6 | -3.6
gsp antagonist | -7% | -9% | -3% | -20% | 7% | -10% | -14% | -7%
D2 potentiator | -2 | 7 | -8 | -10 | -7 | -7 | -7 | -6
gsp ag | -3% | 1% | -1% | -58%[inhibitor] | 26% | -3% | -25% | 24%[15.4 µM]
CtBP-E1A blk | -8 | -13 | 24 | 0 | 4 | -1 | 9 | 5
Six1-Eya2 blk | -27 | -11 | 15 | 8 | 0 | -12 | 6 | 2

9: Cc1cc(C(=O)NN=Cc2c(C)[nH]c3ccccc23)c(C)o1
10: CC(C)CC(=O)N1CCC(N(CCc2ccccc2)Cc2ccccc2)CC1
11: CCCN(C(=O)c1ccc(-n2cncn2)c([N+](=O)[O-])c1)C1CCS(=O)(=O)C1 (centres undefined)
12: O=C(NCCCn1ccnc1)c1ccc(NS(=O)(=O)c2cccc([N+](=O)[O-])c2)cc1
13: Cc1cc(C)nc(SCC(=O)N2CCC(C(N)=O)CC2)n1
14: CC(=O)n1cc([C@H]2C=C(C(=O)N3CCN(Cc4ccccc4)CC3)O[C@@H](OCc3ccc(CO)cc3)C2)c2ccccc21
15: COc1ccc(NC(=O)/C(C#N)=C/c2ccc(-c3ccc(Cl)c(C(=O)O)c3)o2)cc1
16: CCC(NC(=O)Cc1c(C)c2cc3c(cc2oc1=O)OC(C)(C)CC3)C(=O)O (centres undefined)
Compound | 9 | 10 | 11 | 12 | 13 | 14 | 15 | 16
D2 agonist | -2.6 | -2.0 | -1.0 | -3.4 | -5.0 | 7.0 | -5.4 | 2.6
gsp antagonist | -16% | -8% | 12% | 10% | 4% | -24% | -3% | -1%
D2 potentiator | -23 | -27 | -5 | -1 | 3 | -7 | -12 | -3
gsp ag | -8% | -55%[inhibitor] | 19% | 3%[15.4 µM] | 11% | nt | 28% | 14%
CtBP-E1A blk | 8 | nt | -12 | -18 | 11 | -17 | ? | nt
Six1-Eya2 blk | -20 | 1 | 0 | -3 | -1 | -15 | -1 | 2

Reformatted tab-delimited: part of the list above.
No.	molecule	D2 agonist	gsp antagonist	D2 potentiator	gsp ag	CtBP-E1A blk	Six1-Eya2 blk
16	CCC(NC(=O)Cc1c(C)c2cc3c(cc2oc1=O)OC(C)(C)CC3)C(=O)O (centres undefined)	2.6	-1%	-3	14%	nt	2
14	CC(=O)n1cc([C@H]2C=C(C(=O)N3CCN(Cc4ccccc4)CC3)O[C@@H](OCc3ccc(CO)cc3)C2)c2ccccc21	7.0	-24%	-7	nt	-17	-15

Continued.
17: CCCN(CCC)c1nc2ccccc2n2c(C)nnc12
18: COc1ccccc1C(=O)NNC(=O)C(=O)Nc1ccc(C)cc1
19: CCCC1NC(=S)NC(C)=C1C(C)=O (centres undefined)
20: CCOc1ccccc1NC(=O)CSc1c(C)n[nH]c1C
21: O=S(=O)(c1ccccc1)c1cnn(-c2ccccc2)c1-c1ccc(F)cc1
22: C=CCn1c(SC(C)C(=O)NC2CC2)nnc1-c1ccoc1C (centres undefined)
23: COc1ccc(-c2nc3c(C)cc(Br)cn3c2CC2CCCCC2)cc1OC
24: Cc1nc([N+](=O)[O-])c(Br)n1Cc1ccccc1
Compound | 17 | 18 | 19 | 20 | 21 | 22 | 23 | 24
D2 agonist | -1.3 | -4.8 | 1.9 | -1.0 | -3.7 | 0.3 | -4.7 | 0.9
gsp antagonist | -31% | -3% | 10% | 1% | ? | 19% | nt | -5%
D2 potentiator | 5 | -1 | -6 | 0 | -6 | 5 | -9 | 0
gsp ag | 9% | 11% | 2% | -1% | 23% | -4% | nt | 7%
CtBP-E1A blk | -2 | -7 | nt | 1 | 7 | 2 | -9 | 5
Six1-Eya2 blk | 0 | -12 | -3 | 1 | -1 | 1 | -14 | -5

Another view of 14 compounds above.
No. | Structure | D2 agonist | gsp antagonist | D2 potentiator | gsp ag | CtBP-E1A blk | Six1-Eya2 blk
8 | COc1cc(-c2nnc(SCC(=O)N3CCOCC3)o2)cc(OC)c1OC | -3.6 | -7% | -6 | 24%[15.4 µM] | 5 | 2
9 | Cc1cc(C(=O)NN=Cc2c(C)[nH]c3ccccc23)c(C)o1 | -2.6 | -16% | -23 | -8% | 8 | -20
10 | CC(C)CC(=O)N1CCC(N(CCc2ccccc2)Cc2ccccc2)CC1 | -2.0 | -8% | -27 | -55%[inhibitor] | nt | 1
11 | CCCN(C(=O)c1ccc(-n2cncn2)c([N+](=O)[O-])c1)C1CCS(=O)(=O)C1 (centres undefined) | -1.0 | 12% | -5 | 19% | -12 | 0
12 | O=C(NCCCn1ccnc1)c1ccc(NS(=O)(=O)c2cccc([N+](=O)[O-])c2)cc1 | -3.4 | 10% | -1 | 3%[15.4 µM] | -18 | -3
13 | Cc1cc(C)nc(SCC(=O)N2CCC(C(N)=O)CC2)n1 | -5.0 | 4% | 3 | 11% | 11 | -1
14 | CC(=O)n1cc([C@H]2C=C(C(=O)N3CCN(Cc4ccccc4)CC3)O[C@@H](OCc3ccc(CO)cc3)C2)c2ccccc21 | 7.0 | -24% | -7 | nt | -17 | -15
15 | COc1ccc(NC(=O)/C(C#N)=C/c2ccc(-c3ccc(Cl)c(C(=O)O)c3)o2)cc1 | -5.4 | -3% | -12 | 28% | ? | -1
16 | CCC(NC(=O)Cc1c(C)c2cc3c(cc2oc1=O)OC(C)(C)CC3)C(=O)O (centres undefined) | 2.6 | -1% | -3 | 14% | nt | 2
17 | CCCN(CCC)c1nc2ccccc2n2c(C)nnc12 | -1.3 | -31% | 5 | 9% | -2 | 0
18 | COc1ccccc1C(=O)NNC(=O)C(=O)Nc1ccc(C)cc1 | -4.8 | -3% | -1 | 11% | -7 | -12
19 | CCCC1NC(=S)NC(C)=C1C(C)=O (centres undefined) | 1.9 | 10% | -6 | 2% | nt | -3
20 | CCOc1ccccc1NC(=O)CSc1c(C)n[nH]c1C | -1.0 | 1% | 0 | -1% | 1 | 1
21 | O=S(=O)(c1ccccc1)c1cnn(-c2ccccc2)c1-c1ccc(F)cc1 | -3.7 | ? | -6 | 23% | 7 | -1

Going on with the list:
25: COc1cc(OC)cc(C(=O)NNC(=O)CNC(=O)c2cccs2)c1
26: Cc1cc(C)c(NC(=O)CN2C(=O)NC3(CCCCC3)C2=O)c(C)c1
27: COC(=O)c1c(NC(=O)CN2CCCC(C)C2)c2c(C)cccc2n1C (centres undefined)
28: N/C(CS(=O)(=O)c1ccccc1)=N\OC(=O)c1ccc(F)cc1
29: Cc1ccc(-n2c(O)c(C=NC3CCS(=O)(=O)C3)c3ccccc3c2=O)cc1C (centres undefined)
30: COc1cc(-c2nnc3sc(-c4ccco4)nn23)cc(OC)c1OC
31: CCOC(=O)C1(C)C=C(Nc2ccc(NC(C)=O)cc2)C(=O)N1c1ccc(NC(C)=O)cc1 (centres undefined)
32: CCOc1ccc(Nc2nc3ccccc3c(=O)s2)cc1
Compound | 25 | 26 | 27 | 28 | 29 | 30 | 31 | 32
D2 agonist | -1.9 | -0.2 | -2.3 | -2.7 | -1.4 | -2.5 | -4.7 | 1.2
gsp antagonist | 2% | 0% | 1% | 11% | -6% | -9% | 11% | 10%
D2 potentiator | -1 | 26 | -22 | -2 | -7 | -11 | -2 | -8
gsp ag | -35%[inhibitor] | 3% | -18% | -2% | 8% | 5% | -6%[15.4 µM] | ?
CtBP-E1A blk | 3 | 5 | 2 | 7 | 6 | -11 | 4 | -9
Six1-Eya2 blk | -1 | 1 | 1 | 3 | -2 | -5 | 2 | -14

33: CCc1nc2c(OCc3ccc(Cl)cc3)cccn2c1N(C)C(=O)C1CC1
34: CN1CCc2c(sc(NC(=O)c3cc(Cl)sc3Cl)c2C(N)=O)C1
35: Cc1ccc(NC(=O)CN(c2ccccc2F)S(C)(=O)=O)cc1
36: COc1cc(C(=O)Nc2ccc(NC(=O)C3CC3)nc2)cc(OC)c1OC
37: COc1cc(Cl)ccc1OCc1cc(C(=O)NCC(C)(C)N2CCOCC2)no1
38: Cc1cc(NC(=O)CSc2nccn2C)n(-c2ccccc2)n1
39: CCCOC(=O)c1c(NC(=O)/C=C/c2cnn(C)c2C)sc(C(=O)OC)c1C
40: CCN(CC(=O)NCc1ccc(F)cc1)C(=O)COc1ccc2ccccc2c1
Compound | 33 | 34 | 35 | 36 | 37 | 38 | 39 | 40
D2 agonist | 3.5 | -0.2 | -2.8 | -2.6 | -4.7 | -11 | 3.3 | -0.5
gsp antagonist | nt | 4% | -6% | 8% | 5% | 11% | 1% | -9%
D2 potentiator | -8 | -8 | -4 | -8 | -10 | -4 | -6 | 11
gsp ag | nt | -24% | 20%[15.4 µM] | -2% | -11% | -5%[15.4 µM] | -42%[inhibitor] | 3%
CtBP-E1A blk | -3 | -9 | 7 | 1 | -1 | 6 | 9 | 2
Six1-Eya2 blk | -7 | -2 | 6 | -5 | 3 | 11 | 4 | 3

41: c1ccc(Oc2ccc(-c3ccnc4nc(N5CCN(c6ccccc6)CC5)nn34)cc2)cc1
42: COc1ccc(CNC(=O)C2(C)Cc3c(-c4ccc(C(N)=O)cc4)ccnc3O2)cc1OC (centres undefined)
43: CC(C)CNc1cc(Cl)c(S(=O)(=O)NCC(C)C)cc1C(=O)O
44: CN(C)c1ccc(-c2csc(C(O)c3ccc(F)c(F)c3)n2)cc1 (centres undefined)
45: O=C(NCc1ccccc1)C(Cc1ccccc1)N1C(=O)C2C3CCC(C3)C2C1=O (centres undefined)
46: Cc1cccc(-n2c(SCC(=O)NCc3ccco3)nnc2-c2ccco2)c1
47: N#Cc1c(NC(=O)c2ccc(-c3ccccc3[N+](=O)[O-])o2)sc2c1CCCC2
48: CNC(=O)c1[nH]cnc1C(=O)Nc1ccc(F)cc1
49: CSc1nc2cc(Cl)ccc2s1
50: O=C(O)c1c2c(nc3ccccc13)-c1ccccc1CC2
Compound | 41 | 42 | 43 | 44 | 45 | 46 | 47 | 48 | 49 | 50
D2 agonist | -2.6 | 9.0 | 0.9 | -4.6 | -1.9 | -0.1 | -2.6 | 5.9 | -2.6 | 3.4
gsp antagonist | -5% | nt | -2% | nt | 6% | 4% | -11% | ? | 3% | -1%
D2 potentiator | 3 | 10 | 3 | -7 | 1 | -4 | 2 | -8 | 11 | -5
gsp ag | 0% | nt | -3% | nt | -19% | -6% | ? | 3% | -21% | ?
CtBP-E1A blk | 0 | 5 | 3 | ? | 4 | -11 | -7 | -12 | 8 | 3
Six1-Eya2 blk | 0 | 2 | 2 | -16 | 2 | 0 | -2 | -12 | 11 | -4
